Sfp inh – Sfp phosphopantetheinyl transferase inhibition | Biochemical Sfp PPTase activity, qHTS | Potency, µM, inactives show max response, negative = inhibition, hits mostly inhibitors | 3.5% of 310,000 active; active = well fitted inhibition curve with a large enough effect; inconclusive = small, poorly fitted or top-dose-only effect, or another doubt; inactive = no such curve, though single readings can be large or run the other way;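 also: the enzyme is Sfp with the accession as filed and its product quenches rhodamine fluorescence; potency is read from the fitted curve at half-maximal effect; 0% = enzyme reaction without inhibitor and -100% = no enzyme wells; top concentration of the series not given in the record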
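Step 1, compound plus 15 nM Sfp-PPTase, 15 min, room temperature. Step 2, add rhodamine-CoA (5 uM) and BHQ-2-YbbR (12.5 uM). Step 3, read 525/598 nm fluorescence at 0 and 30 min.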
Menin-MLL FL inh – inhibitors of human menin-MLL interaction, wild-type MLL peptide | Fluorescence polarization, fluorescein-MLL peptide displacement from menin | 290,000 tested, under 10 active | FP activity change, % at 61.4 µM | AID 1766; inconclusive = falling polarisation curve, or a change in total fluorescence; inactive = total fluorescence flat and polarisation flat or rising; no compound was filed as active; the % refers to the polarisation; negative = inhibition;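 also: % of control where 0% means no effect; inhibitors lower the polarisation; unlabelled MLL peptide was the positive control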
D2 PAM – potentiates the human D2 dopamine receptor allosterically; P14416; DiscoveRx D2 beta-arrestin cells, luminescence, 90 min; 100% = 57 uM dopamine signal; potentiation, % (concentration not given with the values); 0.23% of 360,000 active; active = potentiation of 50% or more; inconclusive = 30% to 50%; inactive = 30% or less;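 also: compound concentration not given in the record; tested on top of an EC20 dose of dopamine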
Target sequence (P14416 whole entry, looked up): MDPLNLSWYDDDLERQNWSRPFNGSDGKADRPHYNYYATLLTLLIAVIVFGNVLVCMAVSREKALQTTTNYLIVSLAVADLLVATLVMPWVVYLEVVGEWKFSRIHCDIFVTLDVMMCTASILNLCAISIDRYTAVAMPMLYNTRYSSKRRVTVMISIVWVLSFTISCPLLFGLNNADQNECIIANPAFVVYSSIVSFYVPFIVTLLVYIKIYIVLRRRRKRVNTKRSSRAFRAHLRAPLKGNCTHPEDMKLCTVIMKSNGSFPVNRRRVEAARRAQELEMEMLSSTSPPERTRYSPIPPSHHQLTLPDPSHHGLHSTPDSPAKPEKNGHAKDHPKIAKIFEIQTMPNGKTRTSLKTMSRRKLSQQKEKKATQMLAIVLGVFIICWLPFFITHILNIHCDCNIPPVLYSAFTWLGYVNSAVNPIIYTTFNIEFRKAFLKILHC
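D2 cells co-treated with compound plus 50 nM dopamine (EC20) for 90 min at 37 deg C to detect potentiation. Beta-arrestin recruitment was read as enzyme-fragment luminescence after 1 h at ambient temperature. Full response was set by 57 uM dopamine.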
gsp antag – gsp mutant antagonism; 0.4% of 340,000 active; Potency, µM (highest dose often 76.9 µM), without a hit: at the highest dose activity change, negative = inhibition, actives largely listed as inhibitors; AID 624288; gsp-mutant cells, cAMP HTRF, 30 min; control for the full effect not named in the record; active = falling curve of any shape with a large fitted effect; inconclusive = falling curve, mostly with a smaller effect; inactive = flat or rising curve; cell line not stated here;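 also: intracellular cAMP measured with PDE inhibitor Ro 20-1724 present during compound exposure; potency is read from the fitted curve at half-maximal effect; % is scaled to controls: 0 for no effect and ±100 for the full control effect; nearly all actives have a fitted effect of over 65% in size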
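Measurement of cellular cAMP by homogeneous time-resolved fluorescence following a 30 min compound exposure at 37C. The PDE inhibitor […] was present throughout; the assay buffer was DPBS with 0.05% BSA and 0.005% Tween 20.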
ClpP mod – qHTS Assay for Activators of ClpP; ATP-dependent Clp protease proteolytic subunit (Bacillus subtilis (strain 168)), P80244; Potency, µM (titrated, usually from 57.5 µM), inactives show at the top dose activity change, negative = active; AID 651965, 2013; purified B. subtilis ClpP, FRET peptide cleavage, 20 min; 1.9% of 340,000 active; active = well fitted falling curve with a large enough effect; inconclusive = small, poorly fitted or top-dose-only effect; inactive = no such curve, though single readings can be large or run the other way; also: potency is read from the fitted curve at half-maximal effect; the source files actives as falling curves though it sought activators and does not explain the sign; nearly all actives have a fitted effect of over 65% in size; many hits overshoot -100%
Target sequence (P80244 whole entry, looked up): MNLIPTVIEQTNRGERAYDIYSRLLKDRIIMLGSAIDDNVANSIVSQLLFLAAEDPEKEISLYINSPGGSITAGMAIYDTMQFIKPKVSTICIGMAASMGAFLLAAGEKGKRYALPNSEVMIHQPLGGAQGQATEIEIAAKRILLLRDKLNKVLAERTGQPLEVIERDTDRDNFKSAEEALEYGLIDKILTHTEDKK
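ClpP 10 microg/mL final, pH 8 Tris/KCl buffer with BSA, glycerol, Tween-20; compound pinned in; FRET-FV substrate; RT 20 min; Ex320/Em430; ΔFRET vs ADEP 5.8 microM, DMSO, no enzyme.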
TRPV1 PAM – human TRPV1 potentiation; TRPV1-expressing cells, Fluo-8 calcium influx, capsaicin EC20 potentiation; host cell line not named in the record; control for the full effect not named in the record; AID 540277; 0.02% of 320,000 active; potentiation, % at 8.33 µM; Q8NER1; active means potentiation above 80%; inconclusive means 30% to 80%; inactive means below 30%; also: 0% is about no effect
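Cells expressing TRPV1 were dye-loaded with Fluo-8 and read kinetically: 10 s baseline, 3 min after compound (agonist portion), then 2 min after EC20 capsaicin (allosteric enhancer portion). Calcium-bound dye fluorescence at 480/520 nm.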
gsp agonist – activates gsp, the McCune-Albright syndrome mutation. gsp mutant cells, cAMP HTRF, 30 min; control for the full effect not named in the record. Potency, µM (top dose mostly 76.9 µM), for the others: top-dose activation (cAMP increase), usual class: activators. 0.13% of 340,000 active. AID 624287; active = well fitted activation curve with a large enough effect; inconclusive = small, poorly fitted or top-dose-only effect, or another doubt; inactive = no such curve, though single readings can be large or run the other way; cell line not stated here;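 also: phosphodiesterase inhibitor Ro 20-1724 added with compounds to block cAMP breakdown; potency is read from the fitted curve at half-maximal effect; nearly all actives have a fitted effect of over 60% in size; about a fifth of the inactives were tested at one dose only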
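Cells in DMEM/10% FBS with G418 were pretreated with compounds in DMSO plus […] (300 uM stock) for 30 min at 37C. cAMP was measured by HTRF (cAMP-d2 plus anti-cAMP antibody-K) after 30 min at room temperature.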
* hit, by the source's call; ? = inconclusive; . = no result given; & = joins results of further samples; [ ] = dose if it differs, or a comment.

SMILES | Sfp inh | Menin-MLL FL inh | D2 PAM | gsp antag | ClpP mod | TRPV1 PAM | gsp agonist
Cc1ccccc1Nc1nc(NCc2ccco2)c2ccccc2n1 | ? | -2.1 | -5 | -83% | . | -19 | 2%[15.4 µM]
COc1ccc(CCNC(=O)C(Sc2ccccn2)c2ccccc2)cc1OC (stereo unspecified) | 3% | 2.0 | 1 | -8% | -0.9% | 1 | -13%[15.4 µM]
O=C(N=C1SC2CS(=O)(=O)CC2N1c1cccc(Cl)c1Cl)C1CC1 (stereo unspecified) | 7% | . | -7 | 2% | 0.1% | 14 | 2%
O=C(CCC(=O)N/N=C/c1ccc(Br)s1)NCc1ccccc1 | 12% | 0.6 | -9 | 2% | 1.0% | 3 | ?
O=C(COC(=O)C(Cc1ccccc1)NC(=O)c1ccccc1)c1ccccc1 (stereo unspecified) | 1% | 0.0 | -6 | -13% | . | 1 | 27%
CC(C)CC(C(=O)NCC1CCCO1)N(C(=O)Cn1nnc(-c2ccc(F)cc2)n1)c1ccccc1F (stereo unspecified) | 8% | 0.0 | -5 | -8% | 0.2% | -9 | 23%
NC(=O)c1ccc(SCC(=O)OCC(=O)NC2CCCCCCC2)c([N+](=O)[O-])c1 | . | . | 0 | -14% | -0.7% | 25 | 29%
O=c1[nH]c(=O)n([C@H]2C[C@H](O)[C@@H](CO)O2)cc1F | 9%&1%&26%&17% | 5.9&-24&0.4&2.9 | 4 | -9% | 0.9% | ? | .
CN(C1CCCCC1)C(CNS(=O)(=O)c1ccccc1)c1ccccc1 (stereo unspecified) | 11% | 1.3 | -31 | 8% | 0.8% | -7 | -21%
Cc1[nH]c2ccc(Br)cc2c(=O)c1CN1CCCCC1 | 13% | -1.6 | -33 | 7% | -0.4% | 16 | -1%
Cc1nnc2ccc(-c3ccc(NS(=O)(=O)c4ccc(Cl)s4)cc3)nn12 | . | . | 10 | 5% | -2.7% | 17 | 17%
COc1cc(C(=O)NCc2ccc(-c3nc4ccccc4o3)cc2)cc(OC)c1OC | ? | 2.7 | -6 | 5% | -30% | 15 | -9%
CN(C(=O)COC(=O)CSCc1cccc(Cl)c1)c1c(N)n(Cc2ccccc2)c(=O)[nH]c1=O | . | . | 6 | 8% | 0.2% | 4 | ?
Cc1nc(CN(C)C(=O)c2cc(COc3ccc4ncccc4c3)on2)cs1 | 21% | -0.3 | 0 | -28% | -9.1% | -2 | 3%
CCn1cc(Br)c(C(=O)N(C)Cc2ccccc2)n1 | 13% | 1.5 | -7 | -11% | 0.2% | -12 | -37%[inhibitor]
COc1ccc(/C=N/NC(=O)c2ccc(Br)o2)cc1Cn1cc([N+](=O)[O-])cn1 | -4% | -8.2 | -6 | 5% | -3.9% | 6 | 14%
O=C(Nc1ccc(S(=O)(=O)N2CCCCC2)cc1)c1ccco1 | 9% | . | -1 | 1% | . | -2 | -39%[inhibitor]
C#CCOCCOCCOCCNc1nc(N2CCN(C(=O)[C@H](CCC(=O)O)n3cc(C(N)Cc4ccc(O)cc4)nn3)CC2)nc(N2CCN(C(=O)[C@H](Cc3cc4ccccc4[nH]3)n3cc(C(N)CC(C)C)nn3)CC2)n1 (stereo partly specified) | 9% | -0.3 | . | . | . | -6 | .
COc1ccccc1CCC(=O)Nc1nccs1 | 3% | -2.1 | -4 | 7% | -0.9% | ? | -3%[15.4 µM]
COc1cccc(CNC(=O)C2CCN(c3nn4c(=O)cc(C)nc4s3)CC2)c1 | 17% | -1.0 | -5 | -7% | -2.2%&-30% | ? | 16%
CCCCSc1nc(C)cc(C)c1S(=O)(=O)c1ccccc1C | 7% | -0.4 | -9 | -10% | -2.8% | 4 | 15%
Cc1ccc(S(=O)(=O)NCCCNS(=O)(=O)c2ccccc2[N+](=O)[O-])cc1 | 17% | 0.7 | -10 | 7% | -4.1% | 3 | 2%
COc1ccc2c(C(=O)c3ccc(Cl)cc3)n(CCCC(N)=O)[n+]([O-])c2c1 | . | . | -4 | -6% | -3.2% | ? | -54%[inhibitor]
CCOC(=O)c1c(C(C#N)C#N)cc(C)nc1C | -2% | 2.0 | -11 | 11% | -2.3% | -2 | 4%
CC(=O)CCc1oc2ccc(C)cc2c1-c1ccccc1 | -9% | 1.6 | -2 | ? | -1.1% | -4 | 8%[15.4 µM]
CCOCCCNC(=O)c1ccc(Br)cc1 | 20% | 5.7 | -14 | 4% | 1.1% | 0 | 19%
O=C(CCNC(=O)c1ccccc1)N=Nc1c(O)[nH]c2ccccc12 | 10% | 1.2 | . | . | . | 6 | .
CC1CCCC(NC(=O)COC(=O)/C=C/c2ccco2)C1C (stereo unspecified) | . | . | -3 | -2% | 2.4% | 6 | -18%
O=C(NCCN1CCOCC1)C(=O)NCC1OCCN1C(=O)c1ccc(Cl)cc1 (stereo unspecified) | 7% | -0.1 | -7 | 0% | 0.1% | 10 | -7%
CCCNC(=O)C(=O)Nc1cc2c3c(c1)CCC(=O)N3CCC2 | 10% | -1.2 | -5 | 2% | -1.7% | 11 | 11%
COCCCN1C(=O)c2ccc(C(=O)Nc3ccc(C)cc3C)cc2C1=O | 10% | -1.1 | -4 | 5% | -0.5% | -11 | ?
Cc1cc(C)cc(NC(=S)N2CCCC2)c1 | 7% | . | -8 | 4% | 0.5% | 3 | -8%
COc1cccc(NC(=O)c2cccc(N3C(=O)C4C5C=CC(C5)C4C3=O)c2)c1 (stereo unspecified) | 3% | . | -11 | 2% | -3.6% | 8 | ?
CN(Cc1ccccc1)C(=O)c1ccc(NC(=O)Cc2cccc(NC(=O)C3CCCN(C(=O)C4CCC4)C3)c2)cc1 (stereo unspecified) | . | . | -14 | -7% | -3.0% | 11 | 1%
COc1ccc([C@@H]2C[C@@H](c3ccccc3)Oc3cc(OC)cc(OC)c32)cc1 | 14% | 0.6 | -4 | -3% | 0.0% | 0 | .
CC(C)(C)c1ccc(NNC(=O)C2CCC2)cc1 | 6% | 1.6 | -20 | 3% | . | . | 0%
COC(=O)c1cnn2c(C(F)(F)F)cc(-c3ccco3)nc12 | -3% | 2.7 | -25 | 0% | 28µM* | -20 | -37%[inhibitor]
CCN(CC)CCCNC(=S)N(Cc1cccnc1)Cc1cc2cccc(C)c2[nH]c1=O | 4% | -1.7 | -11 | 4% | . | 7 | 6%[15.4 µM]
CN(C)C(=S)N=c1ssc(=S)n1Cc1cccnc1 | . | . | -12 | 8% | 1.5% | . | -10%
CNc1nc(Nc2ccc([N+](=O)[O-])cc2)nc(OCC(F)(F)F)n1 | 10% | -1.9 | 1 | 11% | -1.4% | -2 | 7%
Cc1cc(NC(=O)CCC(=O)N(Cc2cccs2)C(C(=O)NC2CCCC2)c2ccccc2)no1 (stereo unspecified) | 9% | -0.2 | -12 | -10% | -0.8% | -22 | 7%
O=C1CCCN1CCCNS(=O)(=O)c1cccc(F)c1 | 22% | -0.2 | -5 | 12% | 5.9% | -1 | 1%[15.4 µM]
Cc1cc(C)nc(N2CCCC(C(=O)NCc3ccc4c(c3)OCO4)C2)n1 (stereo unspecified) | -9% | 1.8 | -5 | -18% | 0.9% | 8 | -9%[15.4 µM]
Cc1[nH]nc(N)c1-c1ccc(Cl)cc1 | 23% | -0.8 | 2 | 19% | . | 2 | -12%[15.4 µM]
N/C(=N\OC(=O)COc1ccccc1)c1cccnc1 | 7% | 4.4 | -12 | 12% | 2.7% | -6 | -33%[inhibitor]
CCOCCCNC(=O)c1cc(Cl)c(NC(=O)C2=C(C)OCCS2)cc1OC | 11% | 7.6 | 2 | -18% | -0.4% | -18 | -11%
CC(NC(=O)C(=O)NN=C1CCCCCCCCCCC1)c1ccccc1 (stereo unspecified) | 10% | -1.5 | -7 | 18% | -0.3% | 20 | 6%
CCC/C(=C1/c2ccccc2C(=O)N1c1ccccc1)c1ccc(O[C@@H]2CCCCO2)cc1 | . | . | -8 | -4% | -4.5% | . | .
CC(C)C(C)NC(=O)COc1ncnc2ccccc12 (stereo unspecified) | 12% | 1.0 | -14 | -10% | 11µM* | 5 | -2%
O=C(Nc1ccc(-n2cccc2)cc1)C1CC1 | 15% | -2.3 | -3 | 11µM* | . | ? | -2%[15.4 µM]
O=[N+]([O-])c1ccc(NCCNCCOc2nonc2-c2ccccc2)c([N+](=O)[O-])c1 | -1% | -0.3 | -4 | -2% | 16µM* | 13 | -5%[15.4 µM]
CN(CC1CCOCC1)C(=O)CC1C(=O)NCCN1Cc1ccc(-c2ccccc2)cc1 (stereo unspecified) | 15% | -1.0 | -6 | -6% | . | 3 | -5%[15.4 µM]
Cc1ccc(S(=O)(=O)c2nc(S(C)(=O)=O)sc2N2CCC(O)CC2)cc1 | 5% | . | -5 | -7% | 0.5% | 7 | -1%
N#C/C(=C\c1c(Cl)cccc1Cl)c1nc2ccccc2o1 | -8% | 2.6 | 58* | 1% | 4µM* | 1 | ?
CCCCSc1nc(C)c(CC(=O)O)c(=O)[nH]1 | 19% | 6.8 | 5 | 7% | 0.1% | 2 | ?
COc1ccccc1NC(=S)N1CCN(Cc2ccccc2)CC1 | -8% | -2.5 | -18 | 3% | 1.4% | -7 | 16%
Cc1ccccc1CN1CCN(Cc2cc3ccccc3o2)CC1CCO (stereo unspecified) | 15% | 0.0 | -4 | -8% | -0.3% | ? | -39%[inhibitor]
C/C=C(\C)CN1CCC(Oc2cccc(C(=O)NCc3ccccn3)c2)CC1 | 11% | -0.9 | 5 | 3% | . | -4 | 0%[15.4 µM]
COc1cc(-c2nnc(SCC(=O)N3c4ccccc4Sc4ccccc43)o2)cc(OC)c1OC | 0% | 0.7 | 0 | -8% | -7.2% | 1 | 0%
CCc1nc(N2CCN(CC(=O)NCC3CCCO3)CC2)c(C#N)c2c1COC(C)(C)C2 (stereo unspecified) | -29% | . | -9 | 4% | -9.0% | -13 | -7%
O=C1CN(C(=O)CSc2nnc(Nc3ccccc3)s2)c2ccccc2N1 | -14% | 16 | -26 | -2% | -4.1% | 26 | 19%
